HPGD block = inhibitors of human 15-hydroxyprostaglandin dehydrogenase (HPGD) | purified HPGD, NADH fluorescence kinetic, PGE2 substrate | Potency, µM, without a hit: top-dose activity change, negative = inhibition, hits mostly inhibitors | 150,000 compounds, 4.3% hits; active = well fitted inhibition curve with a large enough effect (not every such curve was filed as active); inconclusive = small, poorly fitted or top-dose-only effect, or another doubt; inactive = no such curve, though single readings can be large or run the other way;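 also: top concentration of the series not given in the record; plate controls included wells without enzyme; inactives centre near -10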
Target sequence (P15428 whole entry, looked up): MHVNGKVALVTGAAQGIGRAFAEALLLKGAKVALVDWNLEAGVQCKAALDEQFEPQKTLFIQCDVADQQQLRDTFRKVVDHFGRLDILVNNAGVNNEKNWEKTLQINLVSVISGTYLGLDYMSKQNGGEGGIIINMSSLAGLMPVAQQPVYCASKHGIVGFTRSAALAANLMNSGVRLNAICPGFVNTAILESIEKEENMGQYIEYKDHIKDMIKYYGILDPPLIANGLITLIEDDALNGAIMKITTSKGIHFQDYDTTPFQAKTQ
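NADH formation kinetics: reaction with 30 uM PGE2 and 1 mM NAD+ (final), 20 nM enzyme, Tris-HCl pH 8 with Tween 20, after 15 min compound preincubation at room temperature. Fluorescence change, last versus first of five reads.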
* = called active by the depositor; ? = inconclusive; & = joins results of further samples; ! = repeats disagree. % is scaled to controls: 0 for no effect and ±100 for the full control effect; potency is read from the fitted curve at half-maximal effect.

SMILES | HPGD block
Cc1ccc(CN2C(=O)CN=C(c3ccccc3)c3ccccc32)cc1 | -1%
Fc1ccc(CCNCc2ccccc2Cl)cc1 | 2%
Cc1cccc(C2=NCC(=O)N(CC(=O)NCc3ccco3)c3sc4c(c32)CCCC4)c1 | 28µM*
CCOC(=O)c1c(C)n(COCCO)c2ccc(O)cc12 | -20%
CCCC/C(=N\O)c1c[nH]c2ccccc12 | -6%
O=C1NC(=O)N(C2CCCCC2)C(=O)C1C1c2ccccc2C(=O)N1Cc1ccccc1 (configuration not stated) | -2%
COc1cccc(NC(=O)N2CCC3(CC2)OCCO3)c1 | -9%
CC(C)Oc1ccc(C2(C#N)CC[N+](C)(C)CC2)cc1 | -5%
COc1ccc(CCNCc2ccc(SC)cc2)cc1 | -7%
CCN(CC)CC(O)c1ccc(C2CCCC2)cc1 (configuration not stated) | -13%
Cc1cccc2c1N(N=O)CCC2 | -18%
CCCSP1(=S)NCCCO1 (configuration not stated) | -15%
Cc1cc(/C=C2\C(=O)NC(=O)N(c3cccc(Br)c3)C2=O)c(C)n1C | -9%
Cn1c(C(=O)O)c(CC(=O)N2CCN(Cc3ccccc3)CC2)c2ccccc21 | -6%
N[C@@H](Cc1c[nH]c2cc([N+](=O)[O-])ccc12)C(=O)O | -8%
Cc1ccc(-c2nn(Cc3ccccc3)cc2C=O)cc1C | -20%
O=c1oc2ccccc2c(O)c1Cc1c(O)c2ccccc2oc1=O | -7%&-7%
COc1ccccc1OP(=O)(Nc1cccnc1)Oc1ccccc1OC | -5%
CN1CCN(CCC(C#N)(c2ccccc2)c2ccccc2)CC1 | -10%
O=C(O)C(Cc1cnc[nH]1)NS(=O)(=O)c1ccc(Cl)cc1 (configuration not stated) | -6%
Cc1cc(N=Nc2ccccc2C)ccc1N | -5%
CC(=O)C1C2c3ccccc3O[C@@]1(C)N=c1s/c(=C/c3ccoc3)c(=O)n12 (some centres not stated) | -12%
[O-][Br+2]([O-])O | -8%&-2%
Nc1ccc([N+](=O)[O-])cc1[N+](=O)[O-] | -2%
CC(=NCC1CCCO1)c1c(O)n(-c2ccc(Cl)cc2)c(=O)[nH]c1=O (configuration not stated) | -10%
CNC(=O)O/N=C(/C)SC | -4%
CCOP(=O)(OCC)C(O)c1ccc(OC)cc1OC (configuration not stated) | -3%
Ic1c(C2=CCCCC2)[se]c2ccccc12 | -2%
CN1CCN(c2cc(N3CCNCC3)ccc2[N+](=O)[O-])CC1 | -15%
Clc1nc(Cl)nc(Nc2ccccc2Cl)n1 | -3%
Cc1oc(-c2ccccc2)nc1CN1C(=O)C(C)N=C(c2ccccc2F)c2cc(Cl)ccc21 (configuration not stated) | 6%
CN(C)C1(c2nnnn2CCOC(=O)Nc2ccc(Cl)cc2)CCCCC1 | -12%
CC1O[C@@H](OC2CC(O)[C@@]3(CO)C4C(O)C[C@@]5(C)C(C6=CC(=O)OC6)CC[C@]5(O)C4CC[C@]3(O)C2)C(O)C(O)C1O (some centres not stated) | -2%
O=c1cc(CN2CC=C(c3ccccc3)CC2)c2c(ccc3ccccc32)o1 | -21%
COc1ccc(/C=N/N=C(/N)N[N+](=O)[O-])c(OC)c1 | -29%
CCOc1ccc(N=C2SCCCN2C)cc1 | 0%
OC1(c2ccccc2F)CC2CCC(C1)N2CCN1CCOCC1 (configuration not stated) | -10%
CCN(CC)C(=O)N[C@H]1C=C2c3cccc4[nH]cc(c34)C[C@@H]2N(C)C1 | ?
C[C@@H]1O[C@@H](O[C@H]2C[C@@H](O)[C@]3(CO)[C@H]4[C@H](O)C[C@]5(C)[C@@H]([C@@H]6COC(=O)C6)CC[C@]5(O)[C@@H]4CC[C@]3(O)C2)[C@H](O)[C@H](O)[C@H]1O | -7%
COc1ccc(C(CC(=O)N2CCC3(CC2)OCCO3)NS(=O)(=O)c2ccc(C)cc2)cc1 (configuration not stated) | -14%

Reformatted: entries from further up
Compound,HPGD block
Cc1oc(-c2ccccc2)nc1CN1C(=O)C(C)N=C(c2ccccc2F)c2cc(Cl)ccc21 (configuration not stated),6%
CN(C)C1(c2nnnn2CCOC(=O)Nc2ccc(Cl)cc2)CCCCC1,-12%
CC1O[C@@H](OC2CC(O)[C@@]3(CO)C4C(O)C[C@@]5(C)C(C6=CC(=O)OC6)CC[C@]5(O)C4CC[C@]3(O)C2)C(O)C(O)C1O (some centres not stated),-2%
O=c1cc(CN2CC=C(c3ccccc3)CC2)c2c(ccc3ccccc32)o1,-21%
COc1ccc(/C=N/N=C(/N)N[N+](=O)[O-])c(OC)c1,-29%
CCOc1ccc(N=C2SCCCN2C)cc1,0%

(more compounds)
SMILES | HPGD block
Cc1cccc(-n2c(O)c(C=NCCCN3CCOCC3)c(=O)[nH]c2=O)c1C | -3%
CC(C)N1C(=O)CCC1C(=O)N1CCC2(CC1)OCCO2 (configuration not stated) | -14%
O=C(Cc1ccccc1)N1CCN(C2CCCC2)CC1 | -11%
O=C(CN1CCN(Cc2ccc(Cl)cc2)C1=O)N1CCC2(CC1)OCCO2 | -3%
COc1ccc2c(c1)c(C(=O)O)c(C)n2C(C)C | -5%
O=C(O)c1cccc(Cl)c1 | -7%
O=c1c2ccccc2nc(-c2ccc([N+](=O)[O-])cc2)n1-c1ccccc1 | -15%
Cc1ccc([N+](=O)[O-])cc1C | -8%
CCN(c1ccc(C(O)(C(=O)OC)C(F)(F)F)cc1)S(=O)(=O)c1ccccc1 (configuration not stated) | -6%
Nc1ccc(-c2ccc(N)c(Cl)c2)cc1Cl | -10%
O=C1NC(=O)C2(C(=O)N1)C(c1ccc(F)cc1)NC(=S)NC2c1ccc(F)cc1 (configuration not stated) | 3%
COc1ccc(P2(=O)Nc3ccccc3N2)cc1 | 25µM*
CC(C)N(C(=O)CCl)c1ccccc1 | -6%
COc1cc2c(c(OC)c1OC)-c1ccc(O)c(=O)cc1[C@H](N)CC2 | -13%
O=C(N/N=C/c1c(O)n(CCc2ccccc2)c(=O)[nH]c1=O)c1ccncc1 | -19%
OCC1CO1 (configuration not stated) | -2%
O=P(/C(=N/O)N1CCOCC1)(N1CCOCC1)N1CCOCC1 | -7%
COC1=CC(=O)OC(/C=C/c2ccccc2)C1 (configuration not stated) | -4%
CC(C)N1CCC2(CC1)NC(CO)(CO)CO2 | -11%
COc1cc2c(cc1O)C[C@H]1NCCc3cc4c(c-2c31)OCO4 | ?
CN(C)CCN=Cc1c(O)n(C2CCCCCC2)c(=O)[nH]c1=O | -10%
COC(=O)COc1cc(Cl)c(Cl)cc1Cl | -8%
Cc1ccccc1-n1c(O)c(C=Nc2ccc3c(c2)OCO3)c(=O)[nH]c1=O | -7%
CCC(=NCc1ccco1)c1c(O)n(-c2ccccc2)c(=O)[nH]c1=O | -3%
CCCC(C)C1C(C#N)=C(N)Oc2c1c(=O)oc1ccccc21 (configuration not stated) | ?
CCc1ccc(-n2c(O)c(/C=N/NC(=O)c3ccncc3)c(=O)[nH]c2=O)cc1 | -15%
Cc1cccc(C)c1NC1=NCCCS1 | -11%&-1%&-15%&-5%
CCC(=NCc1ccco1)c1c(O)n(-c2ccc(C)cc2)c(=O)[nH]c1=O | -5%
CC(=O)CCC(C)=O | -6%
Clc1ccc(C(Cl)(Cl)Cl)c(Cl)c1 | -6%
C=CCN1C[C@H](C)N([C@@H](c2ccccc2)c2ccc(C(=O)N(CC)CC)cc2)C[C@H]1C | ?
CCCCOC(C)=O | -10%
CC(ON1CC1(C(F)(F)F)C(F)(F)F)(C(N)=O)C(N)=O (configuration not stated) | -5%
COC(=O)C1=Nc2ccccc2/C1=C\c1c(O)n(-c2ccc(OC)cc2)c(=O)[nH]c1=O | -11%
O=C(O)CCC1NCC2CC1CN1CCCCC21 (configuration not stated) | -2%
Cc1cccc(NC(=O)CSc2ccc(-c3ccco3)nn2)c1 | ?
CCc1cccc(CC)c1N(COC)C(=O)CCl | -3%&-2%
COc1ccc(/C=C/c2cc(O)cc(O)c2)cc1 | -13%
NC1(P(=O)(O)O)CCCCC1 | -10%
C[C@H]1CCCC(=O)CCC/C=C/c2cc(O)cc(O)c2C(=O)O1 | 14µM*!
CCCN1CCO[C@@H]2c3cc(O)ccc3OC[C@@H]21 | ?
CCN(CCNc1ccc([N+](=O)[O-])c2cccnc12)S(=O)(=O)c1ccc(Cl)cc1 | -11%
COc1cccc(N2CCN(Cc3ccc(Cl)cc3)CC2)c1 | -14%
CCC1=C(C[C@H]2NCCc3cc(OC)c(OC)cc32)C[C@H]2c3ccccc3CCN2C1 | -1%
O=P1(NC2CCCC2)COc2ccccc2OC1 | 0.071µM*
O=C(Cn1ncc2c3ccccc3n(Cc3ccccc3F)c2c1=O)N1CCC2(CC1)OCCO2 | -9%
CC1(C)CN=C(NCc2ccccc2Cl)S1 | -6%
CN1CCC(OC(=O)C2c3ccccc3Oc3ccccc32)CC1 | -12%
CC(C)C[C@H](NC(=O)[C@@H]1CCCN1C(=O)[C@@H](N)Cc1ccc(O)cc1)C(=O)NCC(N)=O | -9%
C=CCN1CC[C@]23c4c5ccc(O)c4OC2C(=O)CC[C@]3(O)C1C5 (some centres not stated) | 1%

Next compounds follow.
SMILES | HPGD block
O=c1[nH]c(=O)n(C2CCCCCC2)c(O)c1C=NCC1CCCO1 (configuration not stated) | -5%
O=[N+]([O-])c1ccc2nc(N3CCNCC3)ccc2c1 | -16%
COC1=CC2C3Cc4ccc(OC)c(O)c4[C@]2(CCN3C)CC1=O (some centres not stated) | -5%
CCOC(=O)CC(SP(=O)(OC)OC)C(=O)OCC (configuration not stated) | -21%
O=C(c1ccc(CS(=O)(=O)c2ccccc2)o1)N1CCC2(CC1)OCCO2 | -6%
COc1cccc(C2CC3C(=O)C=CC2N3Cc2ccccc2)c1 (configuration not stated) | -4%
COc1cc2c(cc1OC)[C@H](C)NCC2 | 0%
CCCCn1c(=O)c(C(=O)NCc2ccncc2)c(O)c2ccccc21 | ?
CN1C2CCC1CC(OC(=O)c1ccc([N+](=O)[O-])cc1)C2 (configuration not stated) | 0%
O=C(O)C1C2CCC(O2)C1C(=O)O (configuration not stated) | -3%

Filtered by structure, those above containing bromine.
SMILES | HPGD block
Cc1cc(/C=C2\C(=O)NC(=O)N(c3cccc(Br)c3)C2=O)c(C)n1C | -9%
[O-][Br+2]([O-])O | -8%&-2%

Following part.
SMILES | HPGD block
COc1ccc(C(C)=O)cc1CC(C(=O)c1ccc(Br)cc1)N(C)C (configuration not stated) | -7%
Cc1cccc(N2CCN(CCc3ccccc3)CC2)c1C | -14%
COP(=O)(OC)[C@@H](O)C(Cl)(Cl)Cl | -10%
CCN1C[C@@]2(C)CC[C@@H](OC)[C@@]34C2C(O)[C@@]2(OCO[C@]25CC(OC)C2C[C@@]3(O)C5C2O)C14 (some centres not stated) | -7%
C/C(=C\[C@@H](N)C(=O)O)CP(=O)(O)O | -11%
COc1cc(-c2ccc(=O)[nH]n2)ccc1OC(F)F | 20µM*!
O=Cc1ccc(Cl)cc1Cl | -7%
CC(C)C12CN3CC(C(C)C)(CN(C1)C3c1cccnc1)C2=O (configuration not stated) | 5%
COc1cc2c(cc1OC)[C@]13CCN4CC5=CCOC6CC(=O)N2[C@@H]1[C@@H]6C5C[C@@H]43 (some centres not stated) | -5%
OC(Cc1ccccc1)(c1ccccc1)C1CN2CCC1CC2 (configuration not stated) | -5%

Some of the entries above in a different format:
CCN1C[C@@]2(C)CC[C@@H](OC)[C@@]34C2C(O)[C@@]2(OCO[C@]25CC(OC)C2C[C@@]3(O)C5C2O)C14 (some centres not stated)
  HPGD block: -7%
COc1cc(-c2ccc(=O)[nH]n2)ccc1OC(F)F
  HPGD block: 20µM*!

Carrying on.
SMILES | HPGD block
OCCOc1ccccc1 | -10%
C[C@@H]1O[C@H](O[C@@H]2CC[C@@]3(C=O)[C@H]4CC[C@@]5(C)[C@@H](C6=CC(=O)OC6)CC[C@@]5(O)[C@@H]4CC[C@]3(O)C2)C[C@H](O)[C@@H]1O | -6%
CCOc1ccc2nc(N3CCC(C(=O)N4CCC5(CC4)OCCO5)CC3)sc2c1 | -17%
CCOc1ccccc1N=C1SCCCN1C | -9%
NC(=O)c1ccc(C(=O)Nc2ccc([As](=O)(O)O)cc2)cc1 | -4%
O=C(O)C12C3CCCC1C32c1ccccc1 (configuration not stated) | -16%
FC(F)(F)C1=NC(C(F)(F)F)=NP(N2CCOCC2)(N2CCOCC2)=N1 | -8%
O=C(CN1CCN(Cc2cccc(Cl)c2)C1=O)N1CCC2(CC1)OCCO2 | -12%
Clc1ccccc1CN1CCN(c2ccccc2Cl)CC1 | -26%
COC(=O)CN1C(=O)C2(C(C(=O)OC)=C(N)Oc3ccccc32)C2=C1CC(C)(C)CC2=O (configuration not stated) | -14%

Given in markdown: part of the list above
| Molecule | HPGD block |
| --- | --- |
| CCOc1ccccc1N=C1SCCCN1C | -9% |
| NC(=O)c1ccc(C(=O)Nc2ccc([As](=O)(O)O)cc2)cc1 | -4% |
| O=C(O)C12C3CCCC1C32c1ccccc1 (configuration not stated) | -16% |

Further structures follow.
SMILES | HPGD block
CC[C@H]1CN2CCc3cc(OC)c(OC)cc3[C@@H]2C[C@@H]1C[C@H]1NCCc2cc(OC)c(OC)cc21 | -6%&-8%
CCCCc1nc2ccccc2c(=O)n1-c1ccc(O)cc1 | -13%
O=C1CC(N2CCC(n3c(=O)[nH]c4ccccc43)CC2)C(=O)N1Cc1ccccc1 (configuration not stated) | -7%
Fc1ccc(CCNCc2cccc(Cl)c2)cc1 | -8%
c1cc2c(cc1C1OC[C@@H]3C(c4ccc5c(c4)OCO5)OCC13)OCO2 (some centres not stated) | ?
CN1C(=O)/C(=C\c2ccc(N3CCCCC3)o2)C(=O)NC1=S | -18%
c1csc(-c2nnc(Cc3cccc4ccccc34)o2)c1 | 18µM*
O=P(Nc1ccccc1Cl)(c1ccccc1)c1nc2c(s1)CCCC2 (configuration not stated) | -6%
COc1ccc(CNCC(=O)N2CCC3(CC2)OCCO3)cc1 | -5%
COc1cc(OC)cc(-n2nc(C(=O)N3CCC4(CC3)OCCO4)c3ccccc3c2=O)c1 | -13%
Cn1c(O)c(C=NCCN2CCNCC2)c(=O)n(C)c1=O | -2%
CC(C)n1c(=O)c(C=Nc2ccc(F)cc2)c(O)n(Cc2ccco2)c1=O | -30%

Source: PubChem

The list is partial. The share of hits here may be higher or lower than overall.
